Rango release inh – inhibition of RanGTP-driven Rango-importin beta dissociation; O95149+P62826; Biochemical FRET Rango-importin beta, RanGTP-induced dissociation; Potency, µM (highest dose often 46.1 µM), without a hit: top-dose activity change, negative = inhibition; actives 0.071% (n = 340,000); AID 540253; active means falling FRET ratio curve, often poorly fitted, with flat reads before Ran was added; inconclusive means other falling curves, or compound fluorescence or quenching; inactive means flat or rising ratio curve;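 further: potency means the concentration at half of the fitted maximal effect; % of control where 0% means no effect; nearly all actives have a fitted effect of over 45% in size; -100% = wells without RanGTP and RCC1; the record marks most hits as doubtful in a second field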
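Rango/importin beta premix (0.1/0.25 uM final), PBS + 1 mM DTT + 0.02% Tween-20 + 0.1% BSA; cpd 5 min RT; FRET pre-read; + RanGTP-RCC1 (0.6 uM Ran, 2 mM GTP, 0.2 uM RCC1); 45 min RT; FRET post-read, ex 430, em 486/530 nm.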
GLA inh pH 4.5 – inhibitors of human alpha-galactosidase A at pH 4.5; AID 1467; P06280; 230,000 tested, under 10 active; activity change, negative = inhibition, % at 105 µM; purified enzyme, 4-MU-alpha-Gal fluorescence, pH 4.5; inconclusive = small, poorly fitted or top-dose-only inhibition, or a rising curve; inactive = flat fitted curve, though single readings scatter; no compound was filed as active;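 further: 0% = full activity with enzyme and -100% = basal without enzyme; dose as in the result columns while the protocol names 77 µM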
Target sequence (P06280 whole entry, looked up): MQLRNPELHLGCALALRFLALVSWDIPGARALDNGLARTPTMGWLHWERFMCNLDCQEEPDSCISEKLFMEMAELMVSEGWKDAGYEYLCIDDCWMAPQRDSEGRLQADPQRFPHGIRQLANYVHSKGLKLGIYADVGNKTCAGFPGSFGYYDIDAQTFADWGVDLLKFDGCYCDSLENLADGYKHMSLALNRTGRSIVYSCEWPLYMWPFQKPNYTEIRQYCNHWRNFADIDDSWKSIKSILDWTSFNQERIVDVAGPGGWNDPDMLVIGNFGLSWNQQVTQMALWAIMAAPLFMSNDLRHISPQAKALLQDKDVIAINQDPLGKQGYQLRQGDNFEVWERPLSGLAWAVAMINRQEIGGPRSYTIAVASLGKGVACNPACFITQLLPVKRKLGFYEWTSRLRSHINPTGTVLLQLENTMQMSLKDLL
miR-21 reporter – raises the signal of a miR-21 reporter; Potency, µM (doses to about 38.3 µM), inactives show top-dose reporter change, positive = more light; HeLa miR-21 FLuc reporter, luciferase, 48 h; AID 2288; 340,000 tested, under 10 active; active = well fitted rising curve with a large enough effect; inconclusive = small, poorly fitted or top-dose-only effect; inactive = no such curve, though single readings can be large or run the other way;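 further: % of control where 0% means no effect; miR-21 action dims this reporter so a rising signal means less miR-21 action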
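HeLa cells stably expressing CMV-driven firefly luciferase with a downstream miR-21 binding sequence, endogenously expressing miR-21, were treated with titrations (up to about 40uM final) for 48 hours at 37 degree Celsius. Luciferase luminescence was read after lysis.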
Rango complex inh – prevents formation of the Rango-importin beta complex | Rango CFP/YFP FRET sensor + importin beta, 45 min | Potency, µM (doses to about 92.2 µM), for the others: top-dose inhibition of complex formation | actives 0.031% (n = 340,000); active = rising FRET ratio curve, often small or poorly fitted; inconclusive = mostly compound fluorescence or quenching in the first reads; inactive = flat curves in all reads;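 further: potency means the concentration at half of the fitted maximal effect; 0% = DMSO wells and 100% = buffer wells lacking importin beta; nearly all actives have a fitted effect of over 15% in size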
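FRET biosensor Rango (snurportin 1 IBB between N-terminal EYFP and C-terminal Cerulean), 50 nM in PBS/1 mM DTT/0.02% Tween-20/0.1% BSA, preincubated 5 min RT with compound; 0.125 microM importin beta added, 45 min RT, CFP/YFP FRET ratio read.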
The depositor's hits bear a star; ? = inconclusive; . = not tested or not shown. Not all compounds are listed (hit frequency here may not be typical).

Below each SMILES – Rango release inh	GLA inh pH 4.5	miR-21 reporter	Rango complex inh
CCC1=Nc2cc(C(=O)NCc3ccco3)ccc2Sc2ccc(C)cc21
  14%	-6	22%	0.5%
CC(=O)Oc1ccc(N(C(C)=O)S(=O)(=O)c2ccc3ccccc3c2)cc1
  -11%	.	-2%	0.2%
COc1cc(NC(=O)C2CCN(S(=O)(=O)c3ccc(Cl)cc3)CC2)ccc1-n1cnnn1
  5%	-16	10%	1.7%
O=C(NCc1ccccc1Cl)C(=O)NCC1OCCN1S(=O)(=O)c1ccc(F)cc1 (stereo unspecified)
  9%	.	-4%	8.4%
CCOc1cc2[nH]c(=S)n(CC3CCCN3CC)c(=O)c2cc1OCC (stereo unspecified)
  15%	1	1%	1.3%
O=C(CSC1=NCCS1)Nc1nc(-c2ccccc2)cs1
  6%	0	-34%	0.0%
COc1ccc([C@H]2CC(=O)C=C(c3cc(C)ccc3F)C2)cc1
  -13%	.	.	0.5%
Cc1ccc(CSC2=Nc3ccccc3C3=NC(=O)CN23)cc1
  -7%	0	-37%	4.1%
Cc1cc(N2CCCC2)ccc1/C=C1\NC(=S)N(C)C1=O
  ?	-10	2%	?
CCOc1ccc(OCC)c(Nc2cc(C)nc3ncnn23)c1
  -6%	-1	-8%	3.7%
CC(C)(C)OC(=O)[C@H](Cc1ccccc1)NC(=O)c1nc[nH]c1C(=O)N1CCNCC1
  2%	.	.	4.3%
CCOC(=O)N1N=C(c2ccc(OC)cc2)CC1(O)C(F)(F)F (stereo unspecified)
  -9%	8	-20%	4.6%
CCn1c(=Nc2ccc(N3CCOCC3)cc2)ccc2ccccc21
  -2%	-18	-9%	-0.9%
Cc1ccc(Sc2cnn(-c3ccccc3)c(=O)c2Cl)cc1
  10%	-10	0%	0.5%
CC(=O)CCC(=O)N1CCC(n2nccc2NC(=O)c2ccccc2C)CC1
  -10%	.	0%	-1.9%
COc1ccc(-c2cc(N3CCCC3)n3ncnc3n2)cc1
  -4%	3	0%	0.7%
CS(=O)(=O)N1CCN(c2ccccc2NC(=O)c2cccs2)CC1
  2%	-9	0%	-2.6%
CCC(C)(C(=O)NC1CCCC1)N(C(=O)c1ccccn1)c1ccccc1 (stereo unspecified)
  ?	-9	-9%	5.3%
CCCCOc1ccc(C(=O)NCC(=O)NCC(c2ccc(F)cc2)N2CCOCC2)cc1 (stereo unspecified)
  -3%	.	.	2.3%
OCC1(Cc2ccc(Cl)cc2)CCN(Cc2ccc3nsnc3c2)CC1
  0%	-5	0%	0.7%
COc1ccccc1C(CNC(=O)c1cccc(S(=O)(=O)N2CCCc3ccccc32)c1)N(C)C (stereo unspecified)
  1%	.	.	-3.5%
COc1ccc(Cl)cc1NC(=S)NCCO
  -13%	4	3%	1.4%
COc1cc(/C=N/NC(=O)c2cc(-c3ccc4c(c3)OCO4)n[nH]2)ccc1O
  9%	-13	-13%	-3.1%
Cn1c(=O)c2c(nc(CN3CCOCC3)n2Cc2ccccc2)n(C)c1=O
  5%	.	.	-2.6%
S=C(NCCCc1ccccc1)Nc1ccc(Br)cc1
  ?	.	0%	-3.5%
CC(C)c1ccc2[nH]c3nc(SCC(=O)NC4CC4)nnc3c2c1
  0%	.	-3%	-3.2%
Cc1nc(N)sc1N=Nc1c(C)n(C)n(-c2ccccc2)c1=O
  15%	1	-8%	-0.5%
CCOC(=O)c1c(-c2ccccc2)oc2ccc(OCC(O)CN(C)C)cc12 (stereo unspecified)
  -4%	.	?	-1.1%
Cc1ccccc1C(=O)N1CCN(c2ccc(N3CCOCC3)nn2)CC1
  5%	.	.	-3.7%
Cc1cccc(OCC(=O)OC(C)C(=O)Nc2ccc(Cl)cn2)c1 (stereo unspecified)
  4%	.	.	2.3%

The results go on:
Below each SMILES – Rango release inh	GLA inh pH 4.5	miR-21 reporter	Rango complex inh
NCCCn1c(C(=O)c2cc(Cl)c(N)c(Cl)c2)c2ccccc2[n+]1[O-]
  -1%	.	.	0.0%
O=c1[nH]c(SCCOc2ccccc2)nc2ccccc12
  0%	0	-43%	-4.0%
CCOc1ccc(NC(=O)CSc2nnc(Cc3cccn3C)n2-c2ccc(F)cc2)cc1
  -29%	-2	-3%	0.7%
CC(C#CCN1CCCCC1)OCCOCc1ccccc1 (stereo unspecified)
  11%	4	0%	-0.8%
COc1ccc(C(=O)N2CCN(C(C)=O)CC2)cc1S(=O)(=O)NCc1ccc(Cl)cc1
  -1%	-1	-1%	?
Cc1ccc(OCC(=O)NCCO)c(Br)c1
  6%	4	-24%	-1.8%
CCOC(=O)N1CCC(NC(=O)C2CCN(S(=O)(=O)N3CCCC3)CC2)CC1
  -1%	11	-2%	2.6%
Cc1cc(OCCCCCNCCO)cc(C)c1Cl
  4%	-9	-22%	1.2%
COc1ccc(NC(=O)c2cccs2)c([N+](=O)[O-])c1
  2%	-2	-52%	-1.5%
O=C(Nc1ccc(Cl)cn1)c1ccc([N+](=O)[O-])o1
  ?	3	11%	0.9%
CCOC(=O)CSc1nnc(Cn2nnc3ccccc32)n1-c1ccc(F)cc1
  25%	10	1%	2.4%
CC(C)c1ccc(NC(=O)C2CCN(S(C)(=O)=O)CC2)cc1
  -7%	2	-8%	-4.6%
CC12CN(C(=S)Nc3ccccc3)CC(C)(CN(C(=S)Nc3ccccc3)C1)C2=O
  0%	5	-3%	-0.8%
Cc1cc(C)n(/N=C/c2ccco2)c(=O)c1C#N
  0%	1	-1%	-3.1%
N#CC1(Nc2ccc(-c3ccc(NC4(C#N)CCCC4)cc3)cc2)CCCC1
  13%	.	.	-1.1%
COc1ccccc1-c1nnc(SCC(=O)Nc2ccc3[nH]c(=O)[nH]c3c2)n1N
  1%	.	.	-0.6%
Cc1cc(C)c(S(=O)(=O)N2CCCC(C(=O)N3CCOCC3)C2)c(C)c1 (stereo unspecified)
  -8%	.	-5%	5.2%
COc1ccc(-c2csc(Cc3nnc4n3CCCCC4)n2)cc1
  0%	-7	0%	1.6%
COC(=O)C(=C/C(C)=C/c1cccnc1)C(=O)OC
  20%	6	26%	-2.0%
CCN(CC)c1ccc(S(=O)(=O)N2CCOCC2)cc1NC(=O)COC(=O)/C=C/c1ccco1
  3%	.	.	0.0%
COC(=O)c1c(C)[nH]c(C(=O)OCC(=O)N(CC(C)C)c2c(N)n(Cc3ccccc3)c(=O)[nH]c2=O)c1C
  ?	.	.	?
Cc1ccc(S(=O)(=O)N2CCCC(C(=O)NCc3ccccc3F)C2)cc1 (stereo unspecified)
  7%	.	-1%	-3.3%
Cn1c(=O)oc2cc(S(=O)(=O)N3CCC4(CC3)OCCO4)ccc21
  2%	-11	-3%	-4.3%
Cc1ccc(S(=O)(=O)N(C)C)cc1NC(=O)Nc1ccccc1
  1%	2	8%	-0.2%
CC(=O)N1c2ccc(C)cc2C(c2ccccc2)CC1C (stereo unspecified)
  8%	.	10%	-0.5%
CSCCC(NC(=O)c1ccco1)C(=O)Nc1cc(C)ccn1 (stereo unspecified)
  1%	.	.	0.6%
Cc1ccc(NC(=O)CCC(=O)NNS(=O)(=O)c2ccc(Cl)cc2)cc1C
  -18%	.	0%	-0.2%
Cc1noc(C)c1C(=O)NCc1cccs1
  5%	2	-7%	5.8%
Cn1c(=O)[nH]c(=O)c2c1nc(SCCC(=O)O)n2Cc1cccc(Br)c1
  -9%	.	-3%	-1.1%
O=C(CN1C(=O)NC2(CCCC2)C1=O)Nc1ccc(F)c(F)c1F
  6%	1	-2%	-0.9%

Following part:
Below each SMILES – Rango release inh	GLA inh pH 4.5	miR-21 reporter	Rango complex inh
O=C(NCC1CCCO1)c1ccc(-c2cccc(C(F)(F)F)c2)o1 (stereo unspecified)
  ?	.	-29%	1.7%
Cn1c(SCc2cc(=O)[nH]c3ccccc23)nnc1-c1ccc(Br)cc1
  -6%	2	-10%	-0.8%
Cc1ccc2nc(COC(=O)c3ccc(Cl)nc3)cc(=O)n2c1
  -5%	.	.	-0.6%
CCOc1ccc(NS(=O)(=O)c2cc(C)c(C)cc2C)cc1
  0%	5	3%	1.9%
CN(C)C1(CNC(=O)c2cccc(S(=O)(=O)Nc3ccc(Br)cc3)c2)CCCCC1
  -5%	.	.	-4.0%
Nc1cc(-c2nc3ncccc3o2)ccc1Cl
  -4%	1	-60%	0.2%
O=[N+]([O-])c1ccc(Cl)c(CN2CCN(c3ncccn3)CC2)c1
  0%	.	-10%	7.8%
CS(=O)(=O)N1CCCC(C(=O)Nc2ccccc2Cl)C1 (stereo unspecified)
  -9%	.	0%	-4.0%
Cc1nc2ccccc2n1S(=O)(=O)c1cc(C(=O)O)ccc1Cl
  -11%	.	-3%	0.8%
CCCCc1nc(SCC(=O)N2CCCCC2)c2c(=O)n(C)c(=O)n(C)c2n1
  8%	.	.	-0.5%
CCOc1ccccc1N(CC(=O)Nc1ccccc1C(=O)N1CCCC1)S(C)(=O)=O
  -17%	.	1%	3.6%
COc1ccccc1/C=C1\N=C(C(C)(C)C)OC1=O
  -15%	.	-2%	2.0%
CCOC(=O)C1CCN(C(=O)CCc2c(C)nc3c(-c4ccc(F)cc4)c(C)nn3c2C)CC1
  1%	3	1%	-1.2%
Cc1cccc(CSCCNC(=O)c2ccc(N(C)S(=O)(=O)c3ccccc3)cc2)c1
  2%	-2	-2%	-0.3%
Cc1ccc(-c2c[n+](CC(=O)Nc3ccccc3C)c3n2CCC3)cc1
  -2%	2	2%	3.6%

Among those listed so far, these have an aryl methoxy group:
Below each SMILES – Rango release inh	GLA inh pH 4.5	miR-21 reporter	Rango complex inh
COc1cc(NC(=O)C2CCN(S(=O)(=O)c3ccc(Cl)cc3)CC2)ccc1-n1cnnn1
  5%	-16	10%	1.7%
COc1ccc([C@H]2CC(=O)C=C(c3cc(C)ccc3F)C2)cc1
  -13%	.	.	0.5%
CCOC(=O)N1N=C(c2ccc(OC)cc2)CC1(O)C(F)(F)F (stereo unspecified)
  -9%	8	-20%	4.6%
COc1ccc(-c2cc(N3CCCC3)n3ncnc3n2)cc1
  -4%	3	0%	0.7%
COc1ccccc1C(CNC(=O)c1cccc(S(=O)(=O)N2CCCc3ccccc32)c1)N(C)C (stereo unspecified)
  1%	.	.	-3.5%
COc1ccc(Cl)cc1NC(=S)NCCO
  -13%	4	3%	1.4%
COc1cc(/C=N/NC(=O)c2cc(-c3ccc4c(c3)OCO4)n[nH]2)ccc1O
  9%	-13	-13%	-3.1%
COc1ccc(C(=O)N2CCN(C(C)=O)CC2)cc1S(=O)(=O)NCc1ccc(Cl)cc1
  -1%	-1	-1%	?
COc1ccc(NC(=O)c2cccs2)c([N+](=O)[O-])c1
  2%	-2	-52%	-1.5%
COc1ccccc1-c1nnc(SCC(=O)Nc2ccc3[nH]c(=O)[nH]c3c2)n1N
  1%	.	.	-0.6%
COc1ccc(-c2csc(Cc3nnc4n3CCCCC4)n2)cc1
  0%	-7	0%	1.6%
COc1ccccc1/C=C1\N=C(C(C)(C)C)OC1=O
  -15%	.	-2%	2.0%
